Screening results from PubChem BioAssay.
GIRK2 act: opens human GIRK2 potassium channels | P48051 | HEK293-GIRK2 thallium flux, Thallos fluorescence | calls only for hits at 25 µM | 0.05% of 63,000 active;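 active = among the strongest 0.2% of first-round signals and kept after retests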;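 note: first round at about 10 µM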
Target sequence (P48051 whole entry, looked up): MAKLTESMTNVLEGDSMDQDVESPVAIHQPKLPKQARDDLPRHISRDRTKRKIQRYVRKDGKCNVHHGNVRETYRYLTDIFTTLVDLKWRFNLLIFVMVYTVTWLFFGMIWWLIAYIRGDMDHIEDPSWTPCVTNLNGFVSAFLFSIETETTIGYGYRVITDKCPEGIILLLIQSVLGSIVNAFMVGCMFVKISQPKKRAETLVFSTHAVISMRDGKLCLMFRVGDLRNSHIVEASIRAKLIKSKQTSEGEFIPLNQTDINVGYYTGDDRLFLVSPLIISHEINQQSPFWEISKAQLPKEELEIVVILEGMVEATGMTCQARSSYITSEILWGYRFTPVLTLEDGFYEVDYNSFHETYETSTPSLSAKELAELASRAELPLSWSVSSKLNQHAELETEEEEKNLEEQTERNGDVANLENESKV
Calls only; i = inactive. The list is partial (hit frequency here may not be typical).

SMILES	GIRK2 act
COc1ccc(N2CCCn3c2nc2c3c(=O)n(Cc3ccccc3C)c(=O)n2C)c(OC)c1	i
CC(C)Oc1ccc(-c2noc(CN3C(=O)C(C)Oc4ccccc43)n2)cc1 (centres undefined)	i
Cc1nc(C(=O)N2CCCC(c3nnc(-c4ccc5c(c4)OCO5)o3)C2)cs1 (centres undefined)	i
CC(O)(CNS(=O)(=O)c1cccc(F)c1)c1ccc(-c2ccccc2)cc1 (centres undefined)	i
CCCOc1cccc(C2C(=C(O)c3ccncc3)C(=O)C(=O)N2CCCN(C)C)c1 (centres undefined)	i
C=C(C)Cn1c(C2CC(=O)N(Cc3ccccc3)C2)nc2ccccc21 (centres undefined)	i
O=c1ccn(Cc2nnc(SCc3nc4ccccc4c(=O)[nH]3)o2)c(=O)[nH]1	i
O=C1CC(c2nc3ccccc3n2Cc2c(F)cccc2Cl)CN1Cc1ccccc1 (centres undefined)	i
Cc1cc(C)cc(NC(=O)CCc2nc3sc4c(c3c(=O)[nH]2)CCCCC4)c1	i
Cn1c(=O)c2cc(C(=O)NCC3COc4ccccc4O3)sc2n(C)c1=O (centres undefined)	i
CCCCC(CC)Cn1c(Br)nc2c1c(=O)[nH]c(=O)n2C (centres undefined)	i
CCS(=O)(=O)N1CCCc2cc(NC(=O)c3cn(C)nn3)ccc21	i
COc1ccc(/C=C2\SC(=S)N(c3ccccc3C)C2=O)cc1OC	i
O=C(Nc1ccc(Br)cc1F)c1ccc(NS(=O)(=O)c2cccc(Cl)c2)cc1	i
CC(=O)OC12CC(C)C(O)C1C=C(COC1OC(CO)C(O)C(O)C1O)CCC1C(C=C(C)C2=O)C1(C)C (centres undefined)	i
O=C(Nc1ccc2c(c1)C(=O)NCC2)c1ccc(OC(F)(F)F)cc1	i
O=C(NCC(O)c1ccc2c(c1)CCO2)C(=O)Nc1cccnc1 (centres undefined)	i
NS(=O)(=O)c1ccc(NC(=O)C2COCC(=O)N2Cc2ccccc2)cc1 (centres undefined)	i
CCc1ccccc1-n1c(-c2ccccc2)cn2c3c(=O)n(CC(=O)OC)c(=O)n(C)c3nc12	i
O=C(CSc1nnc2scc(-c3ccc(Cl)cc3)n12)N1CCOCC1	i
CCCN1C(SCC(=O)NCc2ccc(OC)cc2)=NS(=O)(=O)c2ccccc21	i
Cn1nc(C(=O)Nc2ccccc2C(F)(F)F)ccc1=O	i
Cc1ccccc1C(=O)N1CCN(c2oc(-c3ccco3)nc2C#N)CC1	i
CC(O)(CNC(=O)C(=O)NCc1ccc(F)cc1)c1ccco1 (centres undefined)	i
FC(F)(F)c1cccc(-c2noc(-c3cc(-c4ccccc4)c(C(F)(F)F)s3)n2)c1	i
Cc1cc(NC(=O)c2ccoc2COc2ccccc2)no1	i
CCOc1ccc(NS(=O)(=O)c2cccc([N+](=O)[O-])c2)cc1	i
C/C=C/Cn1c(=O)c2c(nc3n(-c4ccccc4OC)c(C)cn23)n(C)c1=O	i
COc1cccc(N2C(=O)c3cccc4c(N5CCCCCC5)ccc(c34)C2=O)c1	i
O=C(CCn1cnc2ccccc2c1=O)NCC#CCOc1ccc2c(c1)OCO2	i
Cc1oc(-c2cccc([N+](=O)[O-])c2)cc1C(=O)Nc1ccc(Cl)cc1	i
Cc1ccc(N2CCN(S(=O)(=O)c3ccc(F)c(C)c3)CC2)c(C)c1	i
CC(=O)Nc1ccc(N2C(=O)/C(=C/c3ccc(O)cc3)SC2=S)cc1	i
Cc1cc(C)n(-c2nc3c(c(=O)n(CC(N)=O)c(=O)n3C)n2Cc2ccc(F)cc2)n1	i
CCNC(=O)N1CCC(Oc2ccccn2)CC1	i
NC(=O)c1ccc(NC(=O)CN2CCC(Cn3cnc4ccccc43)CC2)cc1	i
CCOc1ccccc1NC(=O)Cn1c(=O)n(CC(N)=O)c(=O)c2oc3ccccc3c21	i
O=C(Nc1ccc(F)c(C(F)(F)F)c1)C1COCC(=O)N1Cc1ccccc1 (centres undefined)	i
COc1ccc(N(C)S(=O)(=O)c2ccsc2C(=O)n2nc(C)cc2C)cc1	i
COc1ccc(NC(=O)COc2ccccc2)cc1N1CCCC1=O	i
COC(=O)c1ccc2c(=O)n(CC(=O)NCc3ccc(OC)c(OC)c3)c(=S)[nH]c2c1	i
COc1cccc(C2C(C(=O)c3ccc(C)o3)=C(O)C(=O)N2c2cc(C)on2)c1OC (centres undefined)	i
Cc1nn(C2CCS(=O)(=O)C2)c(C)c1N1CCN(C(=O)c2ccc(Cl)s2)CC1 (centres undefined)	i
Cc1cc(NC(=O)c2ccccc2F)n(-c2nc(-c3ccc(F)cc3)cs2)n1	i
Cc1cc(OCC(=O)Nc2ccc(C#N)cc2)nc(N2CCc3ccccc3C2)n1	i
Cn1nc(C2CCCN(S(=O)(=O)c3c(F)cccc3F)C2)n(-c2ccccc2)c1=O (centres undefined)	i
CC(C(=O)Nc1cccc(N=Cc2c(O)ccc3ccccc23)c1)c1ccccc1 (centres undefined)	i
COc1cc(S(=O)(=O)NCc2ccco2)ccc1F	i
O=C(NCC(F)(F)F)C1COCC(=O)N1Cc1ccccc1 (centres undefined)	i
CN(c1ccccc1)c1nc(N2CCC(C(N)=O)CC2)nc(/C=C/c2ccccc2)c1[N+](=O)[O-]	i
Cc1c(C)n2c3c(=O)n(CC(=O)C(C)(C)C)c(=O)n(C)c3nc2n1-c1ccccc1F	i
Cc1nnc(CNC(=O)CCc2c[nH]c3ccccc23)o1	i
COc1ccccc1-c1coc2c3c(ccc2c1=O)OCN(Cc1ccco1)C3	i
CNC(=O)CSc1ncc(-c2ccc(Br)cc2)n1-c1ccccc1	i
CC(=O)Nc1cccc(NC(=O)c2cc3c(=O)n(C)c(=O)n(C)c3n2Cc2ccccc2)c1	i
CC(=O)Nc1ccc(NC(=O)c2nnn(-c3ccc(C)cc3)c2C2CC2)cc1	i
CCCn1cc(C(=O)NCCOC)c(S(=O)(=O)N2CCN(c3ccccc3Cl)CC2)n1	i
CCCn1c(C(=O)N2CCN(c3ccccc3OC)CC2)cc2c(=O)n(C)c(=O)n(C)c21	i
Cc1noc(-c2cccnc2N2CCC(NC(=O)Cc3cccc(F)c3)C2)n1 (centres undefined)	i
Cc1ccc2c(NC(=O)c3ccnn3C(C)C)cccc2n1	i

6 structures from above, sorted by heavy-atom count, smallest number first:
SMILES	GIRK2 act
CNC(=O)CSc1ncc(-c2ccc(Br)cc2)n1-c1ccccc1	i
Cc1noc(-c2cccnc2N2CCC(NC(=O)Cc3cccc(F)c3)C2)n1 (centres undefined)	i
CC(C(=O)Nc1cccc(N=Cc2c(O)ccc3ccccc23)c1)c1ccccc1 (centres undefined)	i
CCCn1c(C(=O)N2CCN(c3ccccc3OC)CC2)cc2c(=O)n(C)c(=O)n(C)c21	i
CC(=O)Nc1cccc(NC(=O)c2cc3c(=O)n(C)c(=O)n(C)c3n2Cc2ccccc2)c1	i
CN(c1ccccc1)c1nc(N2CCC(C(N)=O)CC2)nc(/C=C/c2ccccc2)c1[N+](=O)[O-]	i

The main list resumes with the two entries that preceded the break.
SMILES	GIRK2 act
Cc1noc(-c2cccnc2N2CCC(NC(=O)Cc3cccc(F)c3)C2)n1 (centres undefined)	i
Cc1ccc2c(NC(=O)c3ccnn3C(C)C)cccc2n1	i
Cc1cc(C)cc(NS(=O)(=O)c2ccc3c(c2)S(=O)(=O)N=CN3)c1	i
CN(C(=O)CN1CCN(Cc2nc3ccccc3n2C)CC1)c1ccccc1	i
Cc1cccc(Oc2nccn3c(=O)n(CC(=O)Nc4cccc(Br)c4)nc23)c1C	i
Cc1cc(C)cc(-n2ccc(=O)c(-c3nc(-c4cccc(Br)c4)no3)n2)c1	i
COc1ccc(Cc2nnc(C3CCN(C(=O)c4ccccc4F)CC3)s2)cc1	i
CCOC(=O)CCC(=O)Nc1ccc(-c2nc(C)no2)cc1	i
O=C(CSC1CCCC1)NCC1CCS(=O)(=O)C1 (centres undefined)	i
Cc1cc2ccccc2n1CCNC(=O)CN1CCN(c2ccc3c(c2)OCCO3)C1=O	i
Cc1cc(CN2CCC(CNC(=O)C(C)(C)Oc3ccc(Cl)cc3)CC2)c(C)o1	i
CNC(=O)c1ncccc1Nc1nc(Nc2cc3c(cc2OC)CCCN3C(=O)CN(C)C)nc2[nH]ccc12	i
COc1ccc(C2CCN(C(=O)Cc3ccc(F)cc3)C2)cc1 (centres undefined)	i
COc1ccc(NC(=O)c2ccccc2C(F)(F)F)cc1N1CCCC1=O	i
CC(=O)c1ccc(NC(=O)CN2CC(c3nc(C4CC4)no3)C2)cc1	i
Cc1noc(C)c1Cn1c(=O)c2cc(Cl)ccc2n2nncc12	i
COc1cccc(CNC(=O)CSc2nc3c(-c4ccccc4)csc3c(=O)n2C)c1OC	i
COc1cccc(C(=O)Nc2cnc(N3CCCC3)nc2)c1	i
COC(=O)c1ccc(NC(=O)Cn2nc(-c3ccccc3)c3sc(N4CCCC4)nc3c2=O)cc1	i
NC(=O)C1CCN(C(=O)c2csc(-n3cccc3)n2)CC1	i
Cc1cc(NC(=O)CSc2nnc(N3CCN(C(=O)c4ccccc4[N+](=O)[O-])CC3)s2)no1	i
CCOCCCNC(=O)c1ccc2c(=O)nc3c(-c4cccc(F)c4)n[nH]n3c2c1	i
CCc1ccc(-c2cc3c(=O)[nH]nc(SCC(=O)Nc4cc(Cl)c(OC)cc4OC)n3n2)cc1	i
COc1ccc(CNC(=O)NCC2(c3ccccc3)CCOCC2)cc1	i
Clc1cc(NCc2ccccc2)ncn1	i
CC(C)c1nccn1CC1CCN(C(=O)c2nc3ccccc3s2)CC1	i
CCOc1ccc(-n2nnc(C(=O)Nc3ccc(C(=O)O)cc3)c2C)cc1	i
Cc1cc(=O)n2c(-c3ccc(NC(=O)Nc4cccc(Cl)c4)cc3)csc2n1	i
COc1ccc(NC(=O)CS(=O)(=O)c2ccc3c(c2)S(=O)(=O)N=CN3)cc1OC	i
COCCNC(=O)C(=O)Nc1cc(N2CCCS2(=O)=O)ccc1C	i
COc1cc(C2NC(=S)NC(C)=C2C(=O)OC(C)C)ccc1O (centres undefined)	i
COc1ccc(C(=O)N2CCCc3cc(C)ccc32)nn1	i
Cc1ccc(C)c2c1NC(=O)C21OCCCO1	i
COC(=O)c1ccccc1NC(=O)CSc1nccn2nc(-c3ccccc3OC)cc12	i
CCN(Cc1ccccc1)C(=O)Cn1cccc(S(=O)(=O)N2CCC(C)CC2)c1=O	i
CN(C)S(=O)(=O)Nc1ccc(-n2nnn(CC(=O)N3CCOCC3)c2=O)cc1	i
Cc1nc(NCCNC(=O)CCCc2ccccc2)cc(Nc2ccccn2)n1	i
NC(=O)Cn1c(=O)c(-c2ccccc2)nc2ccccc21	i
CCOC(=O)NCCCN1CCN(c2ccccc2)CC1	i
C=CCOc1ccc(C2C(=C(O)c3ccccc3)C(=O)C(=O)N2CCCn2ccnc2)cc1 (centres undefined)	i
CC1CCN(S(=O)(=O)c2cccn(CC(=O)Nc3ccc(Cl)cc3F)c2=O)CC1	i
O=C(Nc1nc(C(=O)NCCC2=CCCCC2)co1)c1ccsc1	i
COc1ccc(SCC2CCN(C(=O)c3cc(C)oc3C)CC2)cc1	i
CCc1ccc(N(C)S(=O)(=O)c2ccsc2C(=O)Nc2ccc(OC)c(Cl)c2)cc1	i
COc1ccccc1S(=O)(=O)N1CCC(CSc2nc(C)cs2)CC1	i
O=C(NCCc1ccsc1)c1cc(C2CC2)on1	i
Cc1ccc(S(=O)(=O)c2cn(Cc3ccccc3)c3cc(N4CCOCC4)c(F)cc3c2=O)cc1	i
O=C(Cn1nc(-c2cccs2)ccc1=O)Nc1nccs1	i
Cc1onc(-c2ccccc2Cl)c1C(=O)N1CCC(Cn2ccnc2C)CC1	i
COC(=O)c1cc(O)cc(OC)c1Oc1c(Cl)c(C)cc(O)c1C(=O)O	i
O=C(Nc1nc(CN2CCc3ccccc3C2)cs1)c1ccc(Br)o1	i
Cc1cc2ccccc2n1CCNC(=O)CN1CCN(c2ccccc2)C1=O	i
Cn1cccc1C(O)CNC(=O)C1c2ccccc2Oc2ccccc21 (centres undefined)	i
O=C1CCCC(=O)N1CCS(=O)(=O)N1CCC(Oc2ccccn2)CC1	i
Cc1cccc(N2CCN(Cc3nc(-c4ccc(N5CCCC(C)C5)nc4)no3)CC2)c1 (centres undefined)	i
Cc1ccsc1C(=CCCN1CCC[C@@H](C(=O)O)C1)c1sccc1C	i
COc1cc(OC)cc(-c2nc(-c3nnn(-c4ccccc4)c3C)no2)c1	i
O=C(CSc1ccc2ccccc2n1)N1CCN(c2ccc(F)cc2)CC1	i
CCOC(=O)c1ccc(Nc2c(C#N)cnc3ccccc23)cc1	i
CCCC[C@H](C)C[C@H](O)/C=C/C1[C@H](O)CC(=O)[C@@H]1CCCC/C=C/C(=O)O (some centres undefined)	i
COc1ccc(NC(=O)NCC(C)(O)c2ccco2)cc1 (centres undefined)	i
COc1ccc(-n2c(C)cn3c4c(=O)n(CCN5CCCCC5)c(=O)n(C)c4nc23)cc1	i

Next section.
SMILES	GIRK2 act
COCc1c(-c2nnc(Cc3ccccc3)o2)nnn1-c1ccc(Br)cc1	i
COc1ccc(Cl)cc1NC(=O)N1CCc2c(c(=O)c3cc(C)cc(C)c3n2C)C1	i
Cn1ccc(C(=O)Nc2nnc(-c3ccsc3)o2)n1	i
Cc1noc(C)c1CCC(=O)NCc1ccc(F)cc1F	i
Cc1c(C(=O)N2CCc3ccccc32)nnn1-c1nc(-c2ccccc2)cs1	i
COc1ccc(S(=O)(=O)Nc2ccc(Nc3cc(-n4cccn4)ncn3)cc2)cc1C	i

5 compounds picked at random from those above:
SMILES	GIRK2 act
COc1ccc(/C=C2\SC(=S)N(c3ccccc3C)C2=O)cc1OC	i
Cc1nn(C2CCS(=O)(=O)C2)c(C)c1N1CCN(C(=O)c2ccc(Cl)s2)CC1 (centres undefined)	i
O=C(CSc1ccc2ccccc2n1)N1CCN(c2ccc(F)cc2)CC1	i
C=C(C)Cn1c(C2CC(=O)N(Cc3ccccc3)C2)nc2ccccc21 (centres undefined)	i
COc1ccc(NC(=O)c2ccccc2C(F)(F)F)cc1N1CCCC1=O	i
